RGS16-Gao: regulators of human RGS16-Galphao interaction; O15492+P09471; bead-based flow cytometry RGS16-Galphao binding, fluorescence; actives lie on both sides; 220,000 compounds, 0.38% hits; binding response (% of control), % at 10 µM;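 active = below 25% or above 175%, edge rows of some plates excepted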;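 also: Galphao activated by GDP with aluminum fluoride before binding; 100% = wells without compound and 0% = beads without RGS; some results beyond the cut were filed as inactive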
PKD1 kinase inh: inhibitors of human PKD1 kinase; PKD1 kinase fluorescence polarization assay; inhibition, %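 (about 10 µM by stock and volumes)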; Q15139; AID 797; 200,000 compounds, 0.056% hits;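 active = inhibition of 50% or more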;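 also: controls were vehicle for no effect and a reference inhibitor for full effect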
Target sequence (Q15139 whole entry, looked up): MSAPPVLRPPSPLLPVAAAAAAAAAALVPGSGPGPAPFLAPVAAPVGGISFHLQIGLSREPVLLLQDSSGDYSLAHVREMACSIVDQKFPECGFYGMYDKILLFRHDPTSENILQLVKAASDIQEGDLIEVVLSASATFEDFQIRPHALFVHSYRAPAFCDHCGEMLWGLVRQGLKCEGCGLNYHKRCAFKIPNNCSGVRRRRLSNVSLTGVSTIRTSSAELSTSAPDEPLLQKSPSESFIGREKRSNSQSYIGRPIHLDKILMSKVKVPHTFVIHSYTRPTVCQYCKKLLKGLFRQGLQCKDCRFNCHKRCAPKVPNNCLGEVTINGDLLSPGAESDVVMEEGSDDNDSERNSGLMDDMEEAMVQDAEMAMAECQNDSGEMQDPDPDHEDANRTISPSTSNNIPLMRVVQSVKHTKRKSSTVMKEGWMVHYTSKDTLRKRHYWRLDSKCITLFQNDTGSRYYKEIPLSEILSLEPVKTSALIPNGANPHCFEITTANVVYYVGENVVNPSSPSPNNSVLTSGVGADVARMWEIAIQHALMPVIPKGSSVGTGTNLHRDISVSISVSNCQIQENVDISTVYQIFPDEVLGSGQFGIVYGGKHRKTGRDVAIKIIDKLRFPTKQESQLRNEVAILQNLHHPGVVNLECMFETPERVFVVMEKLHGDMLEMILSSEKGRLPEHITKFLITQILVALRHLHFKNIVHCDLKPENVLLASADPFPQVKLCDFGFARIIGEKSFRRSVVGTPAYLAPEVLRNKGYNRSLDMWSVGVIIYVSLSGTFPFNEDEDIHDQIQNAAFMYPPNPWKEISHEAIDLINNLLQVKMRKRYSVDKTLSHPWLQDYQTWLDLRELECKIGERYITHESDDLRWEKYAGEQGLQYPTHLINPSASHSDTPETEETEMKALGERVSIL
GALR2 agonist: activates the human galanin receptor 2. O43603. GALR2-expressing cells, agonist activation read-out. activation, %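 (tested at 5 µM)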. 140,000 compounds, 0.48% hits;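 active = above mean plus 3 SD of all compounds, about 5% in these data, not always enough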;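 also: 0% = vehicle buffer wells and 100% = reference agonist at full effect; tested in CHO reporter cells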
HSV augment: HSV replication enhancement; HSV replication augmentation in cells, fold increase; maximum fold increase; 220,000 compounds, 0.005% hits; AID 1956;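 active = peak rise of 1.5-fold or more in the series; inconclusive = self-fluorescent or not available for retest; tested in PC3 cells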;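 also: first round at 10 µM; read as green reporter fluorescence; hits show the peak of a series up to 25 µM; 1 = signal of infected wells without compound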
INS promoter inh: TRM-6 insulin promoter activity inhibition | inhibition, % at 2 µM | TRM-6 cells (human fetal islet line), insulin promoter-eGFP reporter, imaging; reporter expression induced with tamoxifen | 130,000 compounds, 0.9% hits | AID 1273;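 active = inhibition above the mean plus 3 SD, with well images judged a real hit on visual review, cut at about 60% in these data, passing the limit was not always enough; inconclusive = inhibition over the cutoff but images rejected on review; inactive = inhibition not above the cutoff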
INS promoter inh cell count: second read-out of INS promoter inh, no call of its own (marks repeat the call); normalized cell count, %; measured here: cell count, toxicity; reference of the scale not given here;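 cells exposed to compound for 48 h; stained nuclei by imaging scaled within each plate; lower means fewer cells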
HSV augment primary fold: recorded beside HSV augment, whose call it bears; fold increase; compound at 10 µM; measured here: primary screen fold increase 10 uM; tested in PC3 cells;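 GFP signal in the first replicate; 1 = infected wells without compound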
The depositor's hits bear a star; i = inactive; u = inconclusive; x = no result given.

canonical_smiles,GALR2 agonist,INS promoter inh cell count,HSV augment,PKD1 kinase inh,HSV augment primary fold,INS promoter inh,RGS16-Gao
COC(=O)c1ccc(OS(=O)(=O)N(C)C)cc1,x,x,i,1,1,x,100
Nc1nnnn1/N=C/c1cccc(Oc2ccccc2)c1,-2.6,x,i,-2,0.87,x,109
C/C(CC(=O)Nc1cccc2c1CCCC2)=N\NC(=O)c1ccccc1N,-0.7,62,i,0,0.88,35,100
CCOC(=O)CN1C(=O)NC(C)(c2ccc(OC(F)F)cc2)C1=O (configuration not stated),-0.5,x,i,-4,0.77,x,96
Cc1cc(O)ccc1N/C=C/c1onc(C)c1[N+](=O)[O-],x,79,i,-6,0.89,-42,101
CN(C)c1cccc(C(=O)Nc2ccc3nc4n(c(=O)c3c2)CCCCC4)c1,-1.5,x,i,-7,0.73,x,108
COc1ccc(C2=CC(=O)OC(C)(c3ccccc3)O2)cc1 (configuration not stated),0.8,118,i,-1,0.99,2,96
CN(C)CCCNc1cc(C(C)(C)C)nc2c(-c3ccc(Cl)cc3)cnn12,x,x,i,x,0.56,x,100
O=C(Cc1ccccc1)Nc1ccc(C(=O)O)cc1,0.0,22,i,-19,0.92,-53,114
CCOC(=O)N1CCN(C(=O)c2ccc(N(Cc3ccc(C)cc3)S(C)(=O)=O)cc2)CC1,-2.5,100,i,4,0.99,-50,93
O=C(NC(N1CCOCC1)C(Cl)(Cl)Cl)c1ccc(Br)cc1 (configuration not stated),x,x,i,4,0.89,x,100
CC(=O)c1cccc(Nc2cc(C)nc3c(C)cc(C)cc23)c1,-1.9,117,i,-16,1,49,108
CCN(C(=O)C1CCN(S(=O)(=O)c2cccc3nonc23)CC1)c1ccccc1,-0.9,x,i,-13,0.99,x,101
CSc1nc(N2CCOCC2)c2c3c(sc2n1)CCCC3,-1.6,147,i,-2,0.83,23,110
COc1ccc(CC(=O)O/N=C(\N)Cc2cccc3ccccc23)cc1OC,-0.4,x,i,4,1.2,x,87
Cc1ccc(N(Cc2cc3ccccc3[nH]c2=O)S(=O)(=O)c2ccccc2)cc1,0.6,x,i,0,1.2,x,166
COCCNCc1ccc(C(C)C)cc1,x,x,i,4,0.98,x,103
Cc1ccc(OS(=O)(=O)c2ccc(-c3csc(C)n3)s2)c(C)c1,x,x,i,x,1.1,x,101
C=CCN1C(=O)NC(c2ccccc2)(C(F)(F)F)S/C1=C(\C#N)c1nnc(N2CCOCC2)n1-c1ccccc1 (configuration not stated),-1.8,46,i,-3,1.1,22,107
O=S(=O)(NCc1ccccc1Br)c1cccs1,-2.6,127,i,-5,0.95,17,101
OCCNC(=S)Nc1ccc(Cl)c(Cl)c1,-1.1,104,i,-6,0.96,20,102
O=C(/C=C/c1ccc2ccccc2n1)c1cc(Cl)ccc1O,x,x,u,x,x,x,97
COCCn1c(C)cc(C(=O)CSc2nc3nc(C)cc(C)n3n2)c1C,0.3,104,i,-10,1,0,105
CC1CCC(NC(=O)Cn2ncc3ccccc32)CC1 (configuration not stated),-1.3,x,i,4,1.1,x,102
CN(C)c1ccc(-c2nc3ccccn3c2/N=C/c2ccc(Br)cc2)cc1,-1.7,125,i,0,1.1,16,110
Cc1cc(Cl)ccc1OC(C)C(=O)N1CCCN(C(=O)C(C)Oc2ccc(Cl)cc2C)CC1 (configuration not stated),-0.1,62,i,-2,0.87,i,96
c1ccc2c(N3CCCC3)nc(-c3ccncc3)nc2c1,-2.1,100,i,-2,0.93,6,114
CCC(C)NC(=O)CO/N=C/c1ccc(C(=O)OC)cc1 (configuration not stated),0.4,87,i,-3,1,-10,103
COc1ccc(/C=C2\SC(=O)N(CC(=O)NN3CCN(C)CC3)C2=O)cc1OC,x,x,i,x,0.96,x,105
COC(=O)/C=C/c1ccsc1NC(C)=O,-1.1,62,x,2,x,8,99

Next part
canonical_smiles,GALR2 agonist,INS promoter inh cell count,HSV augment,PKD1 kinase inh,HSV augment primary fold,INS promoter inh,RGS16-Gao
Cc1ccc(NC(=O)CCn2cnc3ccccc3c2=O)c(C)c1,x,x,i,-8,0.96,x,94
COc1ccc(/C=C2\NC(=S)N(CC3CCCO3)C2=O)c(OC)c1 (configuration not stated),-1.3,x,i,5,0.95,x,107
CCOC(=O)c1c(NC(=O)CSc2nnc(N)s2)sc(C)c1-c1ccc(C)cc1,1.2,x,i,8,0.97,x,106
CCCOc1cccc(-c2nnc(N)s2)c1,0.5,x,i,-6,0.98,x,77
CC(C)(C)NC(=O)CN1CCC(NC(=O)C23CC4CC(CC(C4)C2)C3)CC1,x,x,i,-1,0.99,x,99
CCOC(=O)Nc1ccc(OC)c([N+](=O)[O-])c1,x,x,i,-10,0.87,x,107
CSc1c(CC(=O)Nc2ccccc2C(F)(F)F)n(Cc2ccccc2)c2ccccc12,-0.6,x,i,1,0.93,x,94
Cc1cccc(CN2CCN(Cc3ccc(-n4cccn4)cc3)CC2CCO)n1 (configuration not stated),x,x,i,-1,1,x,100
O=c1cc(N2CCOCC2)[nH]c(=O)n1Cc1ccc(F)cc1,-4.3,x,i,-6,0.86,x,97
CCC(=O)c1c[nH]c(C(=O)N2CCN(c3ccccc3)CC2)c1,x,x,i,-3,0.91,x,100
c1ccc2sc(-c3ccncc3)nc2c1,x,x,i,x,0.99,x,100
CCCCCCCNC(=O)c1ccc(N2CCC3(CC2)OCCO3)c([N+](=O)[O-])c1,-2.1,149,i,-8,0.95,-43,122
Cc1cccc2nc(-c3cccnc3)c(NCCC(C)C)n12,x,x,i,7,1.1,x,104
Cc1ccc2c(C(=O)CNc3nncs3)c(C)[nH]c2c1,x,x,i,x,1.1,x,103
CC1=NN(c2ccccc2)C(=O)C1(C)C,-2.4,171,i,-4,0.88,14,93
CCOC(=O)C(C)Sc1nnc(Cn2c(=O)sc3ccccc32)n1-c1ccccc1 (configuration not stated),-4.2,x,x,4,x,x,98
CCOc1ccc(NC(C)=O)cc1[N+](=O)[O-],x,x,i,-1,1.1,x,104
COc1cccc2c1N1C(=O)c3c(C(=O)O)cccc3C1CC2(C)C (configuration not stated),-1.3,96,i,-11,0.97,0,98
CC(C)NS(=O)(=O)c1ccc(N2C(=O)c3ccccc3C2=O)cc1,-1.1,x,i,-5,0.88,x,97
O=C(Nc1cccnc1Oc1ncnc2cc(Cl)ccc12)c1ccc(F)cc1,x,x,i,x,0.92,x,102
COc1ccc(Cc2cc(-c3ccc(F)cc3)n[nH]c2=O)cc1,x,x,i,x,1.1,x,103
COc1ccccc1C(=O)Nc1cccc(S(=O)(=O)N2CCCC2)c1,x,x,i,x,1,x,97
O=Cc1c(C(=O)O)n(CC(=O)O)c2ccccc12,-0.2,x,i,8,1.2,x,98
CCCCCOC(=O)Nc1nnc(CCC)s1,0.1,x,i,-11,0.75,x,98
COc1ccc(/C=C/c2c([N+](=O)[O-])c(=O)n(C)c(=O)n2C)cc1O,0.4,69,i,-5,0.62,35,77
O=C(CSc1nccn1-c1ccccc1)Nc1ccc2c(c1)OCO2,-1.4,89,i,0,1,-39,97
Cc1ccccc1C(=O)Nc1nc(SCc2ccc(Cl)cc2)n[nH]1,x,x,i,x,0.87,x,92
CCN(C(=O)CSc1cc(-c2ccccc2)c2ccc(OC)cc2n1)C1CCS(=O)(=O)C1 (configuration not stated),1.1,x,i,-5,0.87,x,101
COc1ccc(-c2cccc(C3CC=CC4C3C(=O)N(Cc3ccccc3)C4c3ccc4ccccc4c3)c2)cc1 (configuration not stated),x,x,i,x,0.69,x,111
CCN1CCN(c2nc3ccccc3nc2C(C#N)C(=O)OC2CCCCC2)CC1 (configuration not stated),-1.2,176,i,-12,1.1,8,166

More structures follow:
canonical_smiles,GALR2 agonist,INS promoter inh cell count,HSV augment,PKD1 kinase inh,HSV augment primary fold,INS promoter inh,RGS16-Gao
CC(C)Cn1c(/C=C/c2ccco2)nc2ccccc21,-0.2,x,u,-5,x,x,127
CC1(c2ccc3c(c2)OCO3)NC(=O)N(CC(=O)Nc2ccc(N3CCOCC3)cc2)C1=O (configuration not stated),-3.4,x,i,-17,0.92,x,91
COCCNC(=O)c1ccc(Cn2c(=S)[nH]c3cc4c(cc3c2=O)OCO4)cc1,0.0,107,i,-8,0.64,36,106
C=CCn1c(C)cc(C(=O)CSc2nnc(Cc3ccccc3)o2)c1C,-0.5,62,i,9,0.93,7,91
COc1ccc(NC(=O)CC2Nc3cccc4cccc(c34)NC2=O)cc1 (configuration not stated),x,x,i,0,1.1,x,95
O=c1nc2n(c3ccc(Br)cc13)CCS2,-1.3,129,i,-10,0.92,58,101
CCCCC(=O)OCC(=O)c1cc(C)n(-c2c(C)n(C)n(-c3ccccc3)c2=O)c1C,x,142,i,2,0.9,18,104
CCC(=NC(C)c1ccccc1)c1c(O)n(C)c(=O)n(C)c1=O (configuration not stated),0.3,23*,i,1,0.83,81*,103
CNc1nc(N)c(C(=O)C23CC4CC(CC(C4)C2)C3)s1,x,x,i,1,0.88,x,99
CCOC(=O)c1cnc(SC)nc1Oc1cccc(NS(=O)(=O)c2ccc(F)cc2)c1,-0.7,65,i,2,0.9,45,106
COc1cc(/C=C(\C#N)C(=O)NCCc2ccccc2)cc(OC)c1O,x,x,u,1,x,x,97
COCCn1cnnc1SCC(=O)Nc1ccccc1C(=O)Nc1ccc2c(c1)OCO2,-2.9,x,i,-6,0.95,x,97
CC1(C)C2CCC1(CS(=O)(=O)Nc1ccccc1)C(=O)C2 (configuration not stated),x,123,i,5,0.87,57,106
CS(=O)(=O)N1CCCC(C(=O)NCc2ccccn2)C1 (configuration not stated),-0.6,64,i,0,0.88,-14,105
Brc1ccc(-c2nnc3ccc(N4CCN(c5ccccc5)CC4)nn23)cc1,-0.3,217,i,0,0.83,0,105
CCCCCCCCNc1nc(Cl)nc(NCCN2CCOCC2)n1,x,x,i,-3,0.98,x,114
CCCCCCCCNC(=O)/C(C#N)=C/c1ccc2c(c1)OCCO2,-0.9,x,i,-20,0.86,x,117
Cc1nc2cc(NS(=O)(=O)c3ccccc3)ccc2n1C,x,x,i,-12,0.98,x,110
CC(=O)c1ccc(NC(=O)Nc2ccc(NS(=O)(=O)c3ccc(C)cc3)cc2)cc1,-2.5,115,i,0,0.94,3,99
CSc1ccc(/C=N/NC(=O)c2cc(O)cc(O)c2)cc1,-1.2,106,i,3,0.86,21,52
Cc1nc2cc(C(F)(F)F)ccc2n1C1CCN(CC(=O)N2CCOCC2)CC1,-2.3,109,i,16,0.89,-3,99
C[C@H]1CC[C@]2(O[C@H](CCO)C[C@@H](O)[C@@H]2O)O1,x,x,i,x,0.94,x,103
CC(=C/c1ccccc1)/C=N/NC(=O)CSc1nc(C)cc(C)n1,-0.5,x,i,1,0.95,x,104
COc1cccc(C(=O)Nc2cccc(OC(C)=O)c2)c1,-1.2,281,i,-1,0.94,-28,104
O=C(N/N=C\c1ccccn1)C1COc2cc3ccccc3cc2O1 (configuration not stated),-0.8,84,i,-8,0.98,6,100
OCCOCCn1c2ccccc2c2ccccc21,-1.8,x,i,3,1,x,92
Cc1[nH]c(=O)[nH]c(=O)c1S(=O)(=O)Nc1ccc(Oc2ccccc2)cc1,0.8,54,i,10,0.92,60,96
COc1ccc(NC(=O)C2=C(C)NC(=O)NC2c2cccs2)c(OC)c1 (configuration not stated),x,x,i,1,0.97,x,104
COc1cccc(N2CCN(C(=O)c3cccn4c(=O)c5c(C)c(C)sc5nc34)CC2)c1,x,109,i,1,0.78,-36,93
CCCOC(=O)c1sc2nc3c(cc2c1N)C(=O)CCC3,-1.4,115,i,-2,0.89,-7,103
COc1cc(Cl)c(C)cc1NC(=O)CNC(C)c1ccccc1OC (configuration not stated),x,57,i,8,0.99,-58,50
CC(C)c1cc(CN2CCOCC2)cc(C(C)C)c1O,x,x,i,x,1.1,x,102

Structural class: the entries above containing a tert-butyl group (two)
canonical_smiles,GALR2 agonist,INS promoter inh cell count,HSV augment,PKD1 kinase inh,HSV augment primary fold,INS promoter inh,RGS16-Gao
CN(C)CCCNc1cc(C(C)(C)C)nc2c(-c3ccc(Cl)cc3)cnn12,x,x,i,x,0.56,x,100
CC(C)(C)NC(=O)CN1CCC(NC(=O)C23CC4CC(CC(C4)C2)C3)CC1,x,x,i,-1,0.99,x,99

Rows are unselected. Share with any hit: about 1.3%.
